# High-throughput results: PubChem BioAssay, ICCB-Longwood Screening Facility, Harvard Medical School
# PV pol inh: poliovirus RNA polymerase inhibition; P03300; poliovirus polymerase elongation, fluorescence polarization; active compounds read low; % elongation, % (compound at 16.7 µg/mL); hit rate 0.66% among 150,000; AID 588519; in the data active = % elongation below about 90%; also: some results filed as inactive read as strong as hits
# Target sequence (P03300 1749-2209 limits assumed): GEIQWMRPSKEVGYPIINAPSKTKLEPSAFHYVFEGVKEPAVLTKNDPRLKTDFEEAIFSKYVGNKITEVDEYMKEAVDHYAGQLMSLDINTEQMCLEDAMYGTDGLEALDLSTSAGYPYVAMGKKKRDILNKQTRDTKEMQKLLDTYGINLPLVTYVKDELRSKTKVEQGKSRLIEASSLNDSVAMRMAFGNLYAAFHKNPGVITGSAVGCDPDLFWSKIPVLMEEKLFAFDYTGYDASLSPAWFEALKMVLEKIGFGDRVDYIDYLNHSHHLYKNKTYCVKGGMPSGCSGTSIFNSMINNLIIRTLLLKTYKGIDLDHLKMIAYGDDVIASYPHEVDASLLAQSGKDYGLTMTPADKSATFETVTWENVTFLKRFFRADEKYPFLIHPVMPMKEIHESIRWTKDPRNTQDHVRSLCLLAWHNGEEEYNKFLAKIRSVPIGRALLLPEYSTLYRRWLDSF
# Mtb MbtI inh: inhibitors of Mycobacterium tuberculosis siderophore enzyme MbtI; P9WFX0; purified MbtI enzyme, fluorescence intensity read-out; inhibition, %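 (about 17 µg/mL by stock and volumes)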; hit rate 0.89% among 100,000;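 active = above 50% in both replicates, above 80% if mildly self-fluorescent; inactive = the rest, strongly fluorescent compounds included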;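 also: 0% = mean of negative and 100% = mean of positive controls; one replicate is shown; some compounds called inactive have numbers as strong as hits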
# Target sequence (P9WFX0 whole entry, looked up): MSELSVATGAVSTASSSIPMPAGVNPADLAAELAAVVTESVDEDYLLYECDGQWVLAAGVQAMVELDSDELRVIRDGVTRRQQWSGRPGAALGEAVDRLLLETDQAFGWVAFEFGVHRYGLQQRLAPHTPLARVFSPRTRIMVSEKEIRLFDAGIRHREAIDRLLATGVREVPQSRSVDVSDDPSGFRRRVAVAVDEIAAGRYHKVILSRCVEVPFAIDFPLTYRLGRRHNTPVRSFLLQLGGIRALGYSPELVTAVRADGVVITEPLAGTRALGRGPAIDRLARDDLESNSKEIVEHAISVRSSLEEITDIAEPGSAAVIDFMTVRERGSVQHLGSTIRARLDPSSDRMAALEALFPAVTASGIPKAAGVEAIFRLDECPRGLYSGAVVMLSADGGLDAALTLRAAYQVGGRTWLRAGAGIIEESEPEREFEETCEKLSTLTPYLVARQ
# MenB inh: blocks the Mycobacterium tuberculosis MenB enzyme | P9WNP5 | MenB enzyme assay, absorbance read-out; some hits fall short of the stated cut | inhibition, %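 (about 12 µg/mL by stock and volumes)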 | hit rate 0.43% among 100,000;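 active = mean of two replicates above 30%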;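 also: 0% = no compound and 100% = wells with inactive enzyme; the first replicate is given; strong numbers were not always called active; inactives centre near -10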
# PV pol inh intensity: recorded beside PV pol inh, whose call it bears; % elongation; measured here: total intensity read-out; formula for this scale not given here;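 total fluorescence in place of polarization; lower means less elongation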
# The depositor's hits bear a star; nt = no result given; & = joins results of further samples. Compounds were not picked by outcome, and some 1.8% of all compounds hit somewhere here.
SMILES,PV pol inh,PV pol inh intensity,Mtb MbtI inh,MenB inh
CCN(CC)C(=O)CN1C(=O)C2(OCC(C)(c3ccccc3)CO2)c2ccccc21 (configuration not stated),102,100,1,-11
CC1CCCN(CCCNC(=O)C2CCCN(c3ncnc4c3nc3n4CCCCC3)C2)C1 (configuration not stated),103,109,-8,-8
CCCc1cc(=O)[nH]c(SCC(=O)c2cc(C)n(-c3nccs3)c2C)n1,106,114,-5,-11
O=c1onc(-c2ccccc2)n1-c1cccc(C(F)(F)F)c1,97,96,-2,5
N#Cc1ccc(C(=O)CN2C(=O)S/C(=C\c3ccccc3)C2=O)cc1,101,96,13,2
COc1cc(Cc2cc(OC)c(C)cc2OC)c(OC)cc1C,105,98,-9,-3
CCn1cnc2nc(N)[nH]c(=O)c21,104,100,5,-3
COc1ccc(NC(=O)CN2NS(=O)(=O)c3ccccc3C2=O)cc1Cl,99,101,-8,-24
COc1ccc(S(=O)(=O)N2CCCCC2C(=O)O)cc1OC (configuration not stated),101,105,0,-10
N#C/C(=C\c1cccs1)Sc1nc2ccccc2s1,100,106,11,-27
CCn1c(=NC(=O)C2CC2)sc2cc(Br)ccc21,101,103,12,-24
Cc1cc(/C=C(\C#N)C(=O)OCc2cc(=O)oc3cc(O)ccc23)c(C)n1CC(C)C,113,115,-13,2
CC12CC(NC(=O)N1c1ccccc1)c1ccccc1O2 (configuration not stated),99,107,-11,-5
ClCc1nc(Cl)c2c3c(sc2n1)CCCC3,99,100,4,nt
COc1ccc(-c2nnn(CC(=O)N(c3ccccc3)C(C(=O)NC3CCCC3)c3ccco3)n2)cc1 (configuration not stated),102,102,-11,-45
Cc1cc(N2OCc3ccccc3CO2)ccc1N,101,99,-6,nt
CCC(C(=O)Nc1ccc(OC)c(OC)c1)c1ccccc1 (configuration not stated),101,100,2,-2
O=C1c2ccccc2C(=O)N1CCCCSc1nnnn1-c1ccccc1,104,102,3,13
COC(=O)c1cc(S(=O)(=O)N2c3ccccc3CC2C)cn1C (configuration not stated),106,107,-5,-4
O=C(Cc1ccccc1)N1CCN(C2CCCCC2)CC1,99,99,nt,-7
S=c1oc2ccc(Cl)cc2n1Cc1ccccc1,107,110,-16,-13
O=C1NC2(O)/C(=N/NC(=O)c3ccccc3O)c3ccccc3C2(O)N1 (configuration not stated),104,99,17,-42
Cc1c(CCNC2=CC(=O)OC23CCCCC3)c2ccccc2n1C,109,106,nt,-17
NNC(=O)CNc1nc2ccccc2s1,104,105,-8,9
NS(=O)(=O)c1ccc2c(c1)C1C=CCC1C(C1CC=CCC1)N2 (configuration not stated),96,125,2,-10
COCCN(Cc1nc2ccccc2c(=O)[nH]1)C(=O)c1cn2c(C)cccc2n1,107,105,5,-2
N#Cc1ccc(OCC(=O)NCCCN2CCCC2=O)cc1,102,109,-1,-33
COc1ccc(C(=O)OCC(=O)NCc2ccccc2)cc1,105,108,-6,-7
O=C(CCN1C(=O)C2CC=CCC2C1=O)Nc1cc(C(F)(F)F)ccc1-n1cncn1 (configuration not stated),100,97,21,-3
COC(=O)c1ccc(OCC(O)Cn2cc(/C=N/O)c3ccccc32)cc1 (configuration not stated),nt,nt,-9,-10
CCOc1ccc(C(C)NC(=O)c2cccnc2OCC)cc1OCC (configuration not stated),104,109,-5,-27
Cc1cc(N2CCOCC2)ccc1/C=c1\sc2nc3ccccc3n2c1=O,105,107,-8,-12
CCOc1cc(NC(=S)NCCCN2CCOCC2)c(OCC)cc1NC(=O)C1CC1,100,108,6,4
COC(=O)c1ccc2c(=O)n3nc(N)sc3nc2c1,100,104,26,4
Cc1[nH]c2ccccc2c1C(c1ccncc1)N1CCCC1 (configuration not stated),105,109,26,-1
O=C(CSC1=NS(=O)(=O)c2cc(F)ccc2N1)NC1CCCC1,102,104,7,-22
O=C(O)c1ccc2nccnc2c1,102,104,-8,-11
CNS(=O)(=O)c1ccc(SC)cc1,100,102,3,3
CC1CC(=O)NN=C1c1ccc2c(c1)nnn2O (configuration not stated),101,106,26,29
O=C1c2ccccc2C(=O)N1CN1CCCCC1,100,101,-8,-5
Cc1ccc2nc(NCCO)[nH]c2c1,99,95,0,1
Cc1ccc2cc3cc(C(=O)N4CCN(c5cc(Cl)ccc5C)CC4)oc3nc2c1,101,101,-2,1
Cc1cc(C)c(-c2cc(NC(=O)CN3CCCC(C(N)=O)C3)n(-c3ccccc3)n2)cc1C (configuration not stated),103,110,4,-27
O=C(CSc1nnc(Cc2cccs2)n1C1CCCCC1)c1ccccc1,103,107,-9,-23
CCN(c1ccccc1)S(=O)(=O)c1ccc(Sc2nnc(-c3cccs3)n2CC2CCCO2)nc1 (configuration not stated),100,108,10,-29
CC1(O)N(CCc2ccccc2)C(=O)OC12CCCCC2 (configuration not stated),106,106,nt,-20
C(=Nc1ccccc1)c1ccc(Oc2ccccc2)cc1,103,101,nt,3
C#CCNC(=O)NC1CCCN(S(=O)(=O)c2ccc(C)cc2)C1 (configuration not stated),105,102,1,1
Cc1cc(C)c(C)c(S(=O)(=O)NC2(C#N)CCCCC2)c1C,101,104,3,-3
Cc1ccc(N2C3=C(C(=O)CC(C)(C)C3)C(c3cnn(C)c3)C3=C2CC(C)(C)CC3=O)cc1,101,108,-12,-17
NC(=O)Cc1nc2ccccc2[nH]1,101,98,-5,nt
CCc1ccc2[nH]c(=O)c(CN(Cc3ccccc3)Cc3nnnn3C3CCCC3)cc2c1,103,100,-17,-29
Cc1csc(=O)n1CN1CCN(S(=O)(=O)c2ccccc2C#N)CC1,102,109,11,3
CCOC(=O)N1CCN(C(=O)c2cc(I)ccc2NC(=O)c2ccco2)CC1,100,102,-6,-26
COc1ccccc1-c1c(C#N)c(N)nc(SSc2nc(N)c(C#N)c(-c3ccccc3OC)c2C#N)c1C#N,101,98,56,-19
O=C(O[C@@H]1C[C@H]2C(=O)N[C@@H](Cc3ccccc3)C(=O)N2C1)c1ccccc1,103,101,nt,11
NC(=O)CSc1nnc(Nc2ccccc2)s1,104,106,0,-23
S=c1n(CN(Cc2ccccc2)Cc2ccccc2)nnn1-c1ccccc1,106,114,nt,-1
CCn1c(CNC(=O)c2ccc(Cl)cc2)nnc1SCC(=O)NC1=NCCS1,103,104,-6,-19
O=C(CSc1nnc(-c2cccs2)n1C1CC1)N1CCCC1c1ccc2c(c1)OCCCO2 (configuration not stated),97,107,101,-6

# Next section
SMILES,PV pol inh,PV pol inh intensity,Mtb MbtI inh,MenB inh
Cc1cccc(C(=O)N(c2ccccn2)C(C)c2ccco2)c1 (configuration not stated),106,105,-13,nt
Cc1ccc(N2C(=O)N(Cc3cccnc3)c3ccccc3S2(=O)=O)cc1F,101,106,-10,5
CC(=O)Nc1ccc(C2=CSC3=NCCN23)cc1,103,100,3,-50
O=C(NC1CCCC1)C1CC(=O)N(CCc2ccccc2)C1 (configuration not stated),103,100,5,10
COc1ccc(-c2nc(O)c3cnccn23)cc1,99,97,41,-98
CCCNC(=O)c1sc2c(c1C(=O)Nc1ccccn1)CCCC2,100,97,19,nt
CCC(CC)NC(=O)c1cc(=O)c2ccccc2o1,100,99,6,-16
Cc1nccc2[nH]c(=O)c(C(=O)NCCCN3CCC(Cc4ccccc4)CC3)cc12,100,103,-1,-5
CCC(=O)Nc1cccc(C2=NN(C(C)=O)C(c3ccc(F)cc3)O2)c1 (configuration not stated),99,101,47,-7
COc1ccc(CC(=O)Sc2nc3ccccc3s2)cc1,107,103,nt,-14
c1nnnn1C12CC3CC(CC(C3)C1)C2,101,103,-5,-4
O=C(NCc1ccccc1)C1CCCN(S(=O)(=O)N2CCCCCC2)C1 (configuration not stated),101,104,-3,8
CC(C)c1nccn1-c1ccc(N)cc1,103,101,9,7
COc1ccc(S(=O)(=O)N2CCN(C(=O)c3cccs3)CC2)cc1OC,100,102,-9,3
O=C(O)c1ccccc1C(=O)Nc1ccc(OC(F)F)cc1,101,94,-7,1
CC(=O)Nc1sccc1C(N)=O,104,104,11,-29
O=c1c2nnn(Cc3ccccc3)c2ncn1C/C=C/c1ccccc1,99,99,-9,-49
CCCN(Cc1nnc(-c2ccccc2Cl)o1)C(=O)C1(c2ccccc2)CC1,104,107,3,-23
COc1ccc(-c2nnc(SCC3COc4ccccc4O3)o2)cc1 (configuration not stated),103,95,0,-43
NC(=O)c1cccc(N)c1,102&102,104&103,-48,-7
Cc1cc(C)cc(NS(=O)(=O)c2ccc(NC(=O)C3CCCCC3C(=O)O)cc2)c1 (configuration not stated),101,105,-11,-17
CC(Sc1nc2c(c(=O)[nH]1)CCCC2)C(=O)Nc1ccc(Cl)cc1 (configuration not stated),102,103,2,23
CC1S/C(=C\C#N)NC1=O (configuration not stated),101,96,26,12
Cc1ccc(NC(=O)NC2CCN(C)CC2)cc1Cl,100,98,-6,-32
Cc1ccc(OC(=O)CSc2nnc(-c3ccco3)n2-c2ccccc2)cc1,101,100,-1,-47
Cn1c(C(=O)N2CCN(Cc3ccccc3)CC2)cc2c(=O)n(C)c3ccccc3c21,99,93,4,-6
O=c1c2cccnc2n(Cc2ccccc2F)c(=O)n1C1CCCCC1,102,102,-7,-17
CC(=O)Nc1ccc(Oc2ccc(S(=O)(=O)N3CCCC3)cn2)cc1,103,99,6,13
O=C(CCCN1C(=O)c2cccnc2Sc2ccccc21)NC1CCCC1,101,104,-25,0
COc1ccc(N2C(=O)CCC(C(=O)NC3=NCCS3)C2c2ccccc2)cc1 (configuration not stated),105,100,-4,-5
CCOC(=O)Cc1csc(SCC2=C(C(=O)OCC)C(C)NC(=O)N2)n1 (configuration not stated),99,105,-6,-14
Cc1ccc(C(=O)Oc2ccc3c(c2)ncn3C)cc1,101,96,-9,nt
CSC1=NC(c2ccc(N(C)C)cc2)NN1 (configuration not stated),105,104,1,-42
COC(=O)c1ccccc1NC(=O)CS(=O)(=O)c1nnnn1-c1cccc2ccccc12,102,104,56,-38
O=C(O)c1c(F)c(F)cc2ccccc12,102,106,-4,2
COc1cc(C(=O)NCc2nc3ccccc3[nH]2)cc(OC)c1OC,104,104,-8,-3
O=C(O)c1ccccc1OC(F)F,108,104,-16,-18
Cc1ccc(S(=O)(=O)Nc2c(C)ccc3nsnc23)cc1,98,105,2,1
Cc1cc(=O)[nH]c(=S)[nH]1,101&101,104&100,18&-6,4&-7
C=CCNC(=O)c1c(N)n(CCc2ccccc2F)c2nc3ccccc3nc12,104,105,-3,nt

# An excerpt from above in order of formula weight, high to low:
SMILES,PV pol inh,PV pol inh intensity,Mtb MbtI inh,MenB inh
Cc1cc(C)cc(NS(=O)(=O)c2ccc(NC(=O)C3CCCCC3C(=O)O)cc2)c1 (configuration not stated),101,105,-11,-17
Cc1ccc(S(=O)(=O)Nc2c(C)ccc3nsnc23)cc1,98,105,2,1
CC1S/C(=C\C#N)NC1=O (configuration not stated),101,96,26,12

# Compounds from the list above containing two or more sulfur atoms (15):
SMILES,PV pol inh,PV pol inh intensity,Mtb MbtI inh,MenB inh
CCCc1cc(=O)[nH]c(SCC(=O)c2cc(C)n(-c3nccs3)c2C)n1,106,114,-5,-11
N#C/C(=C\c1cccs1)Sc1nc2ccccc2s1,100,106,11,-27
O=C(CSC1=NS(=O)(=O)c2cc(F)ccc2N1)NC1CCCC1,102,104,7,-22
CNS(=O)(=O)c1ccc(SC)cc1,100,102,3,3
O=C(CSc1nnc(Cc2cccs2)n1C1CCCCC1)c1ccccc1,103,107,-9,-23
CCN(c1ccccc1)S(=O)(=O)c1ccc(Sc2nnc(-c3cccs3)n2CC2CCCO2)nc1 (configuration not stated),100,108,10,-29
Cc1csc(=O)n1CN1CCN(S(=O)(=O)c2ccccc2C#N)CC1,102,109,11,3
COc1ccccc1-c1c(C#N)c(N)nc(SSc2nc(N)c(C#N)c(-c3ccccc3OC)c2C#N)c1C#N,101,98,56,-19
NC(=O)CSc1nnc(Nc2ccccc2)s1,104,106,0,-23
CCn1c(CNC(=O)c2ccc(Cl)cc2)nnc1SCC(=O)NC1=NCCS1,103,104,-6,-19
O=C(CSc1nnc(-c2cccs2)n1C1CC1)N1CCCC1c1ccc2c(c1)OCCCO2 (configuration not stated),97,107,101,-6
COc1ccc(CC(=O)Sc2nc3ccccc3s2)cc1,107,103,nt,-14
COc1ccc(S(=O)(=O)N2CCN(C(=O)c3cccs3)CC2)cc1OC,100,102,-9,3
CCOC(=O)Cc1csc(SCC2=C(C(=O)OCC)C(C)NC(=O)N2)n1 (configuration not stated),99,105,-6,-14
Cc1ccc(S(=O)(=O)Nc2c(C)ccc3nsnc23)cc1,98,105,2,1
